HCMV UL50-53 inh: disrupts HCMV UL50-UL53 complex binding; HTRF UL50-UL53 interaction, normalized percent inhibition; inhibition, % (concentration not given with the values); 190,000 compounds, 0.15% hits; AID 1918969;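 active = both replicates at 50% or more, plus weaker picks with an unusually low signal ratio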;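 also: stock transfer was 100 nL into about 20 µL; 0% = negative control wells and 100% = wells with untagged competitor protein; inactives centre near -12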
Sa growth 42C: S. aureus growth inhibition. S. aureus RN4220 growth, OD600, 20 h, 42 °C; active compounds read low. relative growth, % (test concentration not listed). 170,000 compounds, 0.53% hits. AID 720641;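 active = growth at 42 °C up to 50% and 20 or more points under that at 30 °C, or under 10% at both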;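 also: 300 nL library stock went into each well; scaled to the means of positive and negative controls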
GIV-Gai inh: blocks GIV peptide binding to rat Galpha-i3; P08753; Galpha-i3/FITC-GIV peptide fluorescence polarization, 90 min; active compounds read low; scaled: aluminum fluoride 0%, vehicle 100%; percent of control (FP), % (concentration not given with the values); 210,000 compounds, 0.42% hits;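 active = replicate mean at 85% of control or lower, very high polarization wells dropped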;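 also: wells of about 15 µL received 100 nL stock; the first replicate is given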
Target sequence (P08753 whole entry, looked up): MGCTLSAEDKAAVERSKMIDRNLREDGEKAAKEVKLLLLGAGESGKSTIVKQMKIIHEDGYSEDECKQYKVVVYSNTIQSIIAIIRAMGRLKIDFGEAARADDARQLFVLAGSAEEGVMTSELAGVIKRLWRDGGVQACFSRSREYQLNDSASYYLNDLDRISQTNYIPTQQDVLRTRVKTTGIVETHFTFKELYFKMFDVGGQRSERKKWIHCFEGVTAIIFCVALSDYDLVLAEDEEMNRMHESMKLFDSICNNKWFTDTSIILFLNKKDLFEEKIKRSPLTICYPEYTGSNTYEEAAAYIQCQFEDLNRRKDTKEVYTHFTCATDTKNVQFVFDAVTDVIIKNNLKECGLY
Sa growth 42C second temp: further read-out of Sa growth 42C, marked with its call; relative growth, %; measured here: growth at 30 °C;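 optical density after 20 h as mean of two plates; 100% = untreated growth and lower means inhibition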
The depositor's hits bear a star; · = no result given; & = joins results of further samples. This is a random part of the collection; about 0.82% have a hit in one of these screens.

SMILES | HCMV UL50-53 inh | Sa growth 42C | Sa growth 42C second temp | GIV-Gai inh
COc1ccc(-c2n[nH]c3c2cnc2cc(OC)c(OC)cc23)cc1 | -15 | 103 | 88 | 104&101
CN1CCC(N(C)S(=O)(=O)c2ccc(F)cc2F)CC1 | -27 | 96 | 90 | ·
CON(C)S(=O)(=O)c1ccc(N=Cc2c(O)[nH]c(=O)[nH]c2=O)cc1 | -20 | 107 | 95 | ·
CCOc1ccc(-c2noc(C3CCCN(S(=O)(=O)c4ccccc4)C3)n2)cc1 (stereo not drawn) | -19 | · | · | 99
Cc1oc(-c2ccc(Cl)cc2)nc1CN1CCCC(C(=O)NC2CC2)C1 (stereo not drawn) | -9 | 90 | 94 | 106
Nn1c(Cc2cccs2)nc2ccccc2c1=O | 3 | 98 | 90 | 98
Oc1ccccc1-c1nnc(COc2ccccc2)o1 | -19 | 97 | 75 | 101
O=C(COc1cccc(OCC(=O)Nc2ccccn2)c1)Nc1ccccn1 | 3 | 72 | 75 | ·
CC1SCC(=O)N(c2cccc(C(F)(F)F)c2)C1=O (stereo not drawn) | -7 | · | · | 97
Cc1nnc(N2CCC(C(=O)NC3CCCCC3)CC2)c2nn(-c3ccccc3)c(C)c12 | · | 102 | 94 | 107
CCOC(=O)COc1ccc(C23CC4CC(CC(C4)C2)C3)cc1 | · | 78 | 94 | 109
Cc1ccc(-c2nn(-c3ccccc3)cc2C2SCC(=O)N2Cc2ccccc2)cc1 (stereo not drawn) | -7 | · | · | 93

Reprinted from the part before: six entries, then new ones.
SMILES | HCMV UL50-53 inh | Sa growth 42C | Sa growth 42C second temp | GIV-Gai inh
Oc1ccccc1-c1nnc(COc2ccccc2)o1 | -19 | 97 | 75 | 101
O=C(COc1cccc(OCC(=O)Nc2ccccn2)c1)Nc1ccccn1 | 3 | 72 | 75 | ·
CC1SCC(=O)N(c2cccc(C(F)(F)F)c2)C1=O (stereo not drawn) | -7 | · | · | 97
Cc1nnc(N2CCC(C(=O)NC3CCCCC3)CC2)c2nn(-c3ccccc3)c(C)c12 | · | 102 | 94 | 107
CCOC(=O)COc1ccc(C23CC4CC(CC(C4)C2)C3)cc1 | · | 78 | 94 | 109
Cc1ccc(-c2nn(-c3ccccc3)cc2C2SCC(=O)N2Cc2ccccc2)cc1 (stereo not drawn) | -7 | · | · | 93
COc1ccc2c(Sc3ccccc3)c(C(=O)N3CCC(C)CC3)[nH]c2c1 | -5 | 113 | 91 | 104
CC(C)N1C(=O)S/C(=C/c2cccnc2)C1=O | -27 | 102 | 76 | 96
S=C(Nc1ccc(Cl)cc1Cl)NC(Cn1ccnc1)c1ccccc1 (stereo not drawn) | 9 | 73 | 36 | 100
COc1ccc2c(Sc3ccc(C)cc3)c(C(=O)NCC(C)c3ccccc3)[nH]c2c1 (stereo not drawn) | -14 | 103 | 90 | 101
CC(Sc1nc(N)cc(=O)[nH]1)C(=O)NCC(=O)Nc1ccc(F)c(F)c1F (stereo not drawn) | -34 | 94 | 89 | ·
S=C1Nc2ccccc2C2CC=NN12 (stereo not drawn) | 12 | 84 | 100 | ·
COc1ccccc1CNC(=S)N(C)C | -11 | 109 | 88 | 103
CSc1nnc(CSc2ncccn2)n1C | -18 | 92 | 88 | 96
CC(C)c1cc(C(=O)N2CCC(c3nc4ccccc4o3)CC2)nn1C1CCS(=O)(=O)C1 (stereo not drawn) | 11 | · | · | 99
CCOC(=O)N1CCN(S(=O)(=O)c2ccc(C(=O)Nc3ccc4sc(C)nc4c3)cc2)CC1 | 16 | · | · | 107
Cc1nc(C(F)(F)F)ccc1C(=O)NC1CCCc2ccccc21 (stereo not drawn) | -4 | 96 | 88 | 98
N#CC1=C(N)OC(C2CC2)=C(C#N)C1c1ccccc1Cl (stereo not drawn) | -42 | 94 | 83 | 102
Cn1ncc(Br)c1C(=O)N1CCCC1c1ccc(F)cc1 (stereo not drawn) | -10 | · | · | 98
COc1ccc(C2CC(=O)N(Cc3cccc(F)c3)c3ccccc3S2)cc1 (stereo not drawn) | -8 | 87 | 84 | 111
COCCNC(=O)C1=CC(c2ccc3c(c2)OCO3)=NS(=O)(=O)N1C | -64 | 78 | 71 | 114
C=CCNC(=S)Nc1ccn(Cc2ccccc2C)n1 | -5 | 102 | 92 | 102
O=C(COC(=O)c1ccccc1OCc1ccccc1)c1ccc(F)cc1 | -24 | 103 | 93 | ·
Cc1ccc(NC(=S)NC(C)(C)C)c(C)c1 | -2 | 85 | 83 | 110
COc1ccc(N=c2scc(-c3ccc(O)c(C(N)=O)c3)n2CC2CCCO2)cc1 (stereo not drawn) | -6 | 105 | 87 | ·
CC(C)S(=O)(=O)c1csc(C(=O)OCC(=O)C(C)(C)C)c1N | 1 | 98 | 94 | 107
CC(=O)Nc1ccc(S(=O)(=O)NCCn2c(C)nc3ccccc32)cc1 | -35 | · | · | 102
Cc1cccc(C(=O)N2CCN(c3ccc(N4CCCCCC4)nn3)CC2)c1 | -92 | 91 | 81 | 101
COc1cccc(NC(=O)CN(C)S(=O)(=O)c2cccs2)c1 | -3 | 99 | 86 | 110
Cc1ccc(S(=O)(=O)c2nnn3c2nc(NCc2cccs2)c2sccc23)cc1 | · | 117 | 96 | 113

Entries from the list above that have a CF3 group (2):
SMILES | HCMV UL50-53 inh | Sa growth 42C | Sa growth 42C second temp | GIV-Gai inh
CC1SCC(=O)N(c2cccc(C(F)(F)F)c2)C1=O (stereo not drawn) | -7 | · | · | 97
Cc1nc(C(F)(F)F)ccc1C(=O)NC1CCCc2ccccc21 (stereo not drawn) | -4 | 96 | 88 | 98

Following part:
SMILES | HCMV UL50-53 inh | Sa growth 42C | Sa growth 42C second temp | GIV-Gai inh
NNC(=O)CNC(=O)c1ccccc1 | -14 | 94 | 81 | 98
CNC(=O)CN1C(=O)CSc2ncccc21 | 2 | 121 | 85 | 104
COc1ccc(CN2CCN(C(=O)C3CCN(S(=O)(=O)c4cnc[nH]4)CC3)CC2)c(OC)c1OC | -27 | 85 | 91 | 107
COc1cc(S(=O)(=O)N2CCOCC2)cc(C(=O)OCC(=O)N2CCCc3ccccc32)c1OC | -7 | 106 | 90 | ·
COc1c(Cl)cc(C(=O)Nc2cc(-c3nc4ccccc4[nH]3)ccc2C)cc1Cl | -32 | 93 | 85 | 105
CC1CCCC(C)N1C(=O)CN1CCC(N2CCCCC2)CC1 (stereo not drawn) | 1 | 95 | 91 | 103
Cc1cc(C)cc(NS(=O)(=O)c2ccc3c(c2)c(=O)n(C)c(=O)n3C)c1 | -4 | 99 | 73 | 97
O=C(NCC1CN(Cc2ccccc2)CCO1)c1ccc(N2CCOCC2)nc1 (stereo not drawn) | · | 92 | 86 | 106
CNC(=O)N1CCn2cccc2C1C(C)C (stereo not drawn) | 9 | 94 | 105 | 106
COc1cc(C=C2C(=O)NC(=O)NC2=O)ccc1OCc1ccc(Cl)cc1Cl | -13 | · | · | 106
COc1ccc2nc3sc(C(=O)N(C)c4cccc(C(F)(F)F)c4)cc3cc2c1 | · | 69 | 78 | 101
O=C(CSc1nc2c([nH]c3ccccc32)c(=O)n1-c1cccc(Cl)c1)N1CCCC1 | · | 87 | 60 | 100

2 entries from above, as a markdown table.
| molecule | HCMV UL50-53 inh | Sa growth 42C | Sa growth 42C second temp | GIV-Gai inh |
| --- | --- | --- | --- | --- |
| COc1cc(C=C2C(=O)NC(=O)NC2=O)ccc1OCc1ccc(Cl)cc1Cl | -13 | · | · | 106 |
| COc1ccc2nc3sc(C(=O)N(C)c4cccc(C(F)(F)F)c4)cc3cc2c1 | · | 69 | 78 | 101 |

More entries follow.
SMILES | HCMV UL50-53 inh | Sa growth 42C | Sa growth 42C second temp | GIV-Gai inh
Cc1csc(CC(N)=O)n1 | -4 | 91 | 92 | ·
CCOC(=O)c1nc(NNC(C)=O)sc1C | -5 | 105 | 106 | 103
CCOC(=O)c1ccc(N2C(=O)CSCC2=O)cc1 | 2 | 102 | 110 | 107
COc1ccc(CCNC(=O)COc2ccc3c(=O)c(-c4ccccc4)coc3c2)cc1OC | · | 92 | 74 | 101
OCCNC(=S)Nc1ccccc1 | -12 | 136&92 | 93&82 | 103&97
NC(=O)C1CCN(CC(=O)N2c3ccccc3CCc3ccccc32)CC1 | 12 | 96 | 83 | 105
Cc1ccc2c(c1)c(=O)c1ccccc1n2CC(=O)N1CCN(c2ccccc2)CC1 | -20 | · | · | 106
CCC(=O)Nc1ccc(N2CCCCC2)cc1 | -46 | 92 | 90 | 103
CNC(=O)c1ccc(-c2nc(CN3CCN(C(=O)Nc4ccc(OC)cc4OC)CC3)c(C)o2)cc1 | -37 | · | · | 107
CCCN1C(=O)c2nc3ccccc3n2CC1(C)C(=O)NC1CCCCC1 (stereo not drawn) | -16 | · | · | 104
COC(=O)c1ccccc1NC(=O)CSc1nnnn1-c1ccc2c(c1)OCO2 | -25 | 113 | 95 | 109
COC1=CC(=C2C=CC(=[N+](C)C)C=C2)Oc2ccccc21 | · | 91 | 70 | 100
CSc1nc2c([nH]c3ccccc32)c(=O)n1-c1ccc(C)cc1 | · | 87 | 95 | 97
CC1(C)CC(=O)c2cc(-c3nc(-c4ccc(F)cc4)cs3)c(=O)[nH]c2C1 | 2 | 93 | 87 | 110
CCOc1cc(CNC(=O)c2sc3ncnc(N(C)C4CCCCC4)c3c2C)ccc1OC | · | 79 | 45 | 102
CCOc1ccccc1CNC(=O)CCCN1C(=O)CCn2nc(-c3cccn3C)cc21 | · | 76 | 81 | 108
O=C(CSc1nc(-c2ccc(F)cc2)[nH]c1-c1ccc(F)cc1)Nc1ccc2c(c1)OCO2 | 11 | 108 | 74 | 100
O=C(COc1cccc(Oc2ccccc2)c1)N1CCN(c2ccccc2)CC1 | -17 | 122 | 89 | ·
COc1ccc(CC(O)CN2CCOCC2)cc1 (stereo not drawn) | -6 | 118 | 94 | ·
CCN(CC(=O)NC1CCS(=O)(=O)C1)C(=O)c1cc2ccccc2o1 (stereo not drawn) | 15 | 88 | 94 | ·
Cc1ccc(OC(=O)CN2C(=O)c3ccccc3C2=O)cc1C | -37 | 94 | 90 | 108
CSc1ccc(Cl)c(C(=O)OCC(=O)N2CCc3ccccc32)c1 | -2 | 78 | 90 | ·
COC(=O)C1(C(=O)OC)C2C3C4CC5C6C4C2C6C1C53 (stereo not drawn) | 8 | 98 | 102 | ·
C/C(=N\NC(N)=O)C1(C)CC2(CC(C)(C)OC2=O)C(=O)O1 (stereo not drawn) | -30 | 89 | 84 | 104
N#Cc1ccc(OCC(=O)NC2CCCC2)cc1 | -6 | 97 | 94 | ·
CN1CCN(C(CNC(=O)C(=O)Nc2ccccc2C#N)c2ccc3c(c2)OCO3)CC1 (stereo not drawn) | · | 104 | 89 | 99
CN1CCN(S(=O)(=O)c2ccc(SCC(=O)c3c[nH]c4ccccc34)nc2)CC1 | -30 | 107 | 95 | ·
CC(=O)N1CCCc2cc(S(=O)(=O)CCC(=O)O)ccc21 | -28 | 101 | 82 | 99
CCCCOc1ccc(CNC(=O)c2ccc(NC(=O)N3CCSc4ncccc43)cc2)cc1 | · | 96 | 85 | 105
CCOC(=O)Cn1cnc2c(oc3ccccc32)c1=O | -15 | 75 | 97 | 102
CCN1CCC(N(C)CCc2ccccc2)CC1 | 5 | 98 | 103 | 110
COC(=O)C1=C(N)C(=O)N(c2ccc(C(=O)OC)cc2)C1 | -35 | 114 | 93 | ·
Cc1nn(C)c(Cl)c1S(=O)(=O)N(C)C | -20 | · | · | 107
CC(OC(=O)c1ccccc1OC(F)F)C(N)=O (stereo not drawn) | -14 | 72 | 88 | ·
Cc1nc(COC(=O)[C@H](C(C)C)N2C(=O)c3ccccc3C2=O)cs1 | -36 | 78 | 86 | ·
FC(F)(F)c1cccc(N2CCN(C(=S)Nc3ccccc3)CC2)c1 | -2 | 127 | 99 | ·
CN(C)c1ccc(/C=c2\sc3nc4ccccc4n3c2=O)cc1 | -14 | 90 | 86 | 120
COc1cc(-c2nnc(SCC(=O)N(C)C3CCCCC3)o2)cc(OC)c1OC | -5 | 98 | 85 | 102
CCOc1ccc(C(=O)NCCc2csc(-c3cccnc3)n2)cc1 | · | 96 | 94 | 103
CCOC(=O)Nc1ccc2c(COC(=O)c3cccc(OCc4c(C)noc4C)c3)cc(=O)oc2c1 | 15 | 79 | 92 | ·
C=CCN1C(=O)/C(=C/c2ccco2)S/C1=N/S(=O)(=O)c1ccccc1 | -20 | 99 | 98 | 103
O=C1Nc2ccccc2O/C1=C\c1ccc(C(=O)N2CCN(c3ccccn3)CC2)cc1 | -55 | 95 | 84 | 102
O=C(c1cnc(N2CCCCC2)c2ccccc12)N1CCN(c2ccc(Cl)cc2)CC1 | · | 95 | 96 | 106
O=C(CCS(=O)(=O)c1cccc2nsnc12)NCc1ccccc1 | -99 | 107 | 83 | 99
CCN1CCOC(=O)C1CC(=O)Nc1cc(Cl)ccc1C (stereo not drawn) | -4 | 59 | 50 | 106
CCc1nc2ccccc2n1CC(O)COc1ccc(Cl)cc1 (stereo not drawn) | -5 | 104 | 90 | 98
CN(CC(=O)Nc1ncn[nH]1)S(=O)(=O)c1ccc(Cl)cc1 | -3 | 80 | 88 | 94
CCOc1ccc(S(=O)(=O)N2CCN(C(=O)c3cc(S(=O)(=O)N4CCOCC4)ccc3C)CC2)cc1 | -10 | 94 | 94 | ·
CCOc1ccc(C(=O)c2oc3ccccc3c2NC(=O)c2cc(-c3ccc(C)cc3)on2)cc1 | -14 | 96 | 83 | 97
Cc1ccn2c(=O)cc(COc3cccc(NC(=O)Nc4cccc(Cl)c4C)c3)nc2c1 | · | 74 | 76 | 88
Nc1nc(CCC(=O)O)nc(Nc2ccccc2)n1 | -25 | 65 | 95 | ·
Cc1nn(CCC#N)c(C)c1Sc1ncccn1 | 13 | 102 | 103 | 101
